Screening data: PubChem BioAssay, several laboratories
RN4220 kill: kills Staphylococcus aureus RN4220 | S. aureus RN4220 growth, OD600, 16 h | inhibition, % (test concentration not listed) | 0.33% of 330,000 active | AID 1259311;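 active means z-score of -3 or lower and OD600 up to 0.18 on both plates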;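 further: plate controls were untreated cells for no effect and reference antibiotic for full effect; stock transfer was 100 nL into about 80 µL; one replicate is shown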
BJeLR viability: kills HRASV12-expressing BJeLR cells; BJeLR (HRASV12) viability, CellTiter-Glo ATP luminescence, 48 h; reference of the scale not given here; inhibition, % (concentration not given with the values); 0.17% of 300,000 active; AID 1554;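 active means replicate mean above 50%; inconclusive means above 50% but judged a plate artefact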;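 further: 50 nL library stock added to about 25 µL; numbers are from one replicate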
PrP UTR inh: inhibition of PrP 5' UTR reporter expression | cell-based PrP 5' UTR mRNA reporter, plate reader | inhibition, % (test concentration not listed) | 0.35% of 340,000 active;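 active means every replicate at 50% or more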;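 further: 0 = median of the neutral control wells; tested in H4 reporter cells; numbers are from one replicate; inactives centre near -14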
Mtb hypoxia rep: reduces hypoxia-regulated biosensor signal in M. tuberculosis; M. tuberculosis hypoxia-regulated fluorescent reporter, fluorescence; fluorescence inhibition, % (no concentration beside the values); 0.1% of 300,000 active; AID 1159583;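 active means 35 to 45% if threefold the growth effect, above 45% if 1.5-fold the growth effect; inactive means the rest, general growth blockers included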;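 further: wells of about 50 µL received 100 nL stock; 0% = vehicle wells and 100% = reference inhibitor wells; whole bacteria with a GFP reporter of the hypoxia response; strong numbers were not always called active; many hits fall short of the cut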
Sa ugtP lethal: kills S. aureus RN4220 lacking UgtP; 0.54% of 330,000 active; AID 1259309; S. aureus RN4220 ugtP deletion, OD600 growth, 16 h; some inactives read as strong as hits; growth inhibition, % (concentration not given with the values);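 active means z-score under -3 and OD600 up to 0.15 on both plates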;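 further: plate controls were untreated wells for no effect and antibiotic for full effect; wells of about 80 µL received 100 nL stock; the first replicate is given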
Autofluor counter: counter-screen for toxin protease inhibitors: compound fluorescence; compound autofluorescence counterscreen, microsphere flow cytometry; stronger effect = higher value; fluorescence intensity (concentration not given with the values); 3.1% of 360,000 active;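 active means at least 3 SD above the mean of all compounds, about 16000 in these data; inconclusive means too few beads counted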;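 further: 100 nL of 1 mM stock went into each well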
Mtb hypoxia rep growth: recorded beside Mtb hypoxia rep, whose call it bears; growth inhibition, %; measured here: M. tuberculosis growth (absorbance);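 0% = vehicle and 100% = reference antibiotic; read after six days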
Starred values were filed as active, the others as inactive; ? = inconclusive; . = not tested or not shown; & = joins results of further samples.

SMILES | RN4220 kill | BJeLR viability | PrP UTR inh | Mtb hypoxia rep | Mtb hypoxia rep growth | Sa ugtP lethal | Autofluor counter
COc1ccccc1N(CC(=O)NC1CCCC1)C(=O)CCC(=O)Nc1cc(C)on1 | 1.4 | -18 | -4 | -2 | 8 | 1 | 4528
COc1ccc2oc(C(=O)OCC(=O)N(C)c3c(N)n(Cc4ccccc4)c(=O)[nH]c3=O)c(C)c2c1 | -3.8 | -5 | -9 | 7 | 14 | 0 | 4859
COc1ccc(C(=O)C2CN(c3ccccc3)CC2c2ccc(Cl)cc2)cc1 (configuration not stated) | -6.9 | 8 | -22 | . | . | 57 | 4788
O=C(CC1CC=CCC(Cc2ccc(F)cc2)C(=O)OC(c2ccccc2)CNC1=O)NCCO (configuration not stated) | 5.3&8.7&4.8 | . | . | 5&2&18 | -1&6&5 | 2&9&2 | .
CCOc1ccc(OCCC(=O)OCC(=O)Nc2ccc(N3CCOCC3)cc2)cc1 | -0.2 | -21 | 0 | -14 | -3 | -3 | 5422
C/C=C(/C)C(=O)Nc1cccc(C2=NOC3(C2)C[C@@H](C(N)=O)N(C(=O)CCCCC)C3)c1 (some centres not stated) | . | 0 | 0 | . | . | . | 3398
CN(C(=O)CN1C(=O)S/C(=C\c2ccc(F)cc2)C1=O)C1CCS(=O)(=O)C1 (configuration not stated) | 2.0 | 2 | -20 | -4 | -14 | 6 | 5423
COc1cc(C(=S)N2CCOCC2)ccc1O | 1.4 | 5 | -13 | 4 | -11 | -1 | 2545
CC(=O)NC1C(OCc2ccccc2)OC(CO)C(OC(C)=O)C1OC(C)=O (configuration not stated) | 0.7 | -3 | -8 | 9 | -2 | 3 | 2516
Cn1c(=O)n(Cc2ccc(F)cc2)c(=O)c2c1nc1n2CCCN1Cc1ccccc1 | -4.0 | 4 | -15 | . | . | 9 | 4864
COc1ccc(NC(=O)c2cc(-c3cc(C)ccc3O)n[nH]2)cc1Cl | -0.6 | -2 | -28 | -1 | -8 | -18 | ?
COC(=O)C1CCCN1S(=O)(=O)c1ccccc1NC(=O)c1cc(OC)c(OC)c(OC)c1 (configuration not stated) | 5.7 | 7 | -17 | 7 | 6 | 6 | 2998
CCCS(=O)(=O)N1CCN(Cc2ccc(OCc3ccccc3)c(OC)c2)CC1 | 12 | 9 | -14 | 4 | 8 | 19 | 10947
CCCc1n[nH]c2c1/C(=N\O)CCC2 | . | -3 | -18 | . | . | . | 3116
Cc1ccc2cc(NC(=O)c3ccccc3)ccc2n1 | 3.5 | 5 | -36 | 8 | 2 | -3 | 3126
S=c1nc(-c2ccc(Cl)cc2)[nH][nH]1 | 3.5 | 0 | -15 | 3 | 0 | 18 | 3952
CCc1cccc(C)c1NC(=O)CCOc1ccccc1 | 3.2 | -2 | -2 | 12 | 3 | 5 | 3516
O=S(=O)(c1ccc(F)cc1)N1CCN(CC(O)COCc2ccccc2)CC1 (configuration not stated) | 1.4 | . | -13 | 13 | 10 | 9 | 4256
COc1ccc(CN2C=C3C(=O)C(C)(OC(=O)C4CCCC4)C(=O)C=C3C=C2c2ccsc2)cc1 (configuration not stated) | -0.8 | -6 | -21 | 18 | 10 | 0 | 3309
O=C(CCN1C(=O)C2CC=C(Cl)CC2C1=O)NCc1ccccc1 (configuration not stated) | -8.9 | -3 | -2 | 7 | 5 | -6 | 2723
Cc1ccc(-c2cc(C(=O)NC3CCN(Cc4ccccc4)CC3)c3ccccc3n2)cc1 | -2.0 | -8 | -5 | 5 | 1 | 4 | 5338
Cc1c(C(=O)O)oc2c(F)cccc12 | 2.6 | 4 | -19 | 7 | 1 | -2 | 4271
CCCCC(=O)Nc1cc(C)c(NC(=O)c2cccs2)cn1 | 7.7 | -23 | -7 | 14 | 5 | 5 | 3081
COc1ccc(NC2CCCN(C(=O)CCc3cn[nH]c3)C2)cc1 (configuration not stated) | 1.5 | 4 | -16 | 10 | -4 | 1 | 5981
O=C(Nc1ccc(COc2ccccc2)cc1)Oc1ccccc1N1CCOCC1 | 3.0 | -12 | 59* | 13 | 6 | 3 | 3889
CCn1c(SCc2ccc(C(=O)Nc3nccs3)cc2)nnc1-c1ccc(N)cc1 | 3.5 | 3 | 1 | 1 | 16 | -2 | 3054
O=S(=O)(Nc1ccc(-c2ccc(N3CCOCC3)nn2)cc1)c1cc(Cl)ccc1Cl | 0.8 | 7 | -13 | -9 | -12 | 6 | .
CCN(C(=O)COC(=O)/C=C/c1cnc2ccccc2n1)C1CCS(=O)(=O)C1 (configuration not stated) | -2.8 | -10 | -8 | -6 | 2 | -1 | 4483
CCOC(=O)c1c(C)[nH]c(C)c1C(=O)CSc1nc2ccccc2c(=O)n1-c1ccccc1C | -1.5 | -7 | -11 | 4 | 9 | -6 | 2005
O=C(Nc1nn(Cc2ccccc2F)cc1Br)c1cccs1 | 2.2 | . | 2 | 2 | 7 | 6 | 10405
CN(C)S(=O)(=O)c1ccc(NC(=O)COC(=O)C2COc3ccccc3O2)cc1 (configuration not stated) | 1.8 | 4 | -34 | 3 | 8 | 6 | 2018
CCOC(=O)C1=C(C)N=c2s/c(=C/c3ccc(OCC(=O)O)cc3)c(=O)n2C1c1cc(OC)c(OC)c(OC)c1 (configuration not stated) | . | -6 | -10 | . | . | . | 2863
CCOC(=O)N1CCN(C(=O)c2cccc(NC(=O)c3ccco3)c2)CC1 | -0.6 | -3 | 7 | . | . | -2 | 3778
CCCCCCCCCCOC(=O)Cn1c(COc2ccc(OC)cc2)[n+](C)c2ccccc21 | . | 7&4 | -30&-23 | . | . | . | 4651&3614
Cc1ccc(NC(=O)CN(C)C(=O)CSc2nc(C)cs2)cc1 | 3.9 | -1 | -11 | 16 | 15 | 7 | 3159
COc1ccc(N2CC(C(=O)Nc3c(C(N)=O)oc4ccccc34)CC2=O)cc1 (configuration not stated) | 1.3 | -15 | -16 | 12 | 8 | -3 | 4731
O=C(COc1ccc(Cl)cc1Cl)NC(=O)N1CCCCC1 | 6.4 | -15 | -84 | 11 | 5 | -7 | 8413
O=C(CON=Cc1c(Cl)cccc1Cl)NNC(=O)c1cccc(Cl)c1 | 2.2 | . | . | 2 | 6 | 3 | .
Cc1ccc(NC(=O)CCC(=O)NNC(=O)c2cccc([N+](=O)[O-])c2)cc1C | -1.9 | -17 | -38 | 7 | 6 | 6 | 15415
Cc1ccc(S(=O)(=O)NC(=O)c2cccc(Br)c2)cc1 | 4.2 | -12 | -12 | 10 | 15 | 1 | 5535
Cc1cc(NC(=O)C2CC(=O)N(c3ccc(F)cc3)C2)no1 (configuration not stated) | 2.1 | 4 | 3 | -7 | 6 | 3 | 3748
Cc1ccc(CN2CC(C(=O)Nc3ccc(C)cn3)CC2=O)cc1 (configuration not stated) | 3.9 | -3 | -5 | 4 | -6 | 7 | 4749
O=C(c1cnn2c1NC(c1ccc(Br)cc1)CC2C(F)(F)F)N1CCN2CCCC2C1 (configuration not stated) | -0.4 | -1 | -53 | 4 | -19 | 6 | 11202
O=C(CSc1ccccn1)NCc1ccc2c(c1)OCO2 | 5.4 | ? | -13 | 0 | -1 | 3 | 4494
O=C(/C=C/c1ccc([N+](=O)[O-])cc1)OCC(=O)c1ccc[nH]1 | -2.8 | . | -4 | -6 | 12 | -9 | 4033
COc1ccccc1CNC(=O)C1CCN(c2ncnc3c2nc2n3CCCCC2)CC1 | -5.3 | 1 | 2 | -11 | 9 | -9 | 4482
CC(C)OC(=O)CSc1nc(N)c(C#N)cc1C#N | 7.8 | 0 | -23 | 5 | 20 | 3 | 4612
O=C(NCc1ccncc1)C12CC3CC(CC(C3)C1)C2 | -12 | -1 | -13 | 7 | 1 | -6 | 3203
CCN(CC(=O)NCc1ccc2c(c1)OCO2)S(=O)(=O)c1ccc(F)cc1 | 1.8 | 6 | -8 | 1 | 8 | 5 | 5704
COc1cccc2c(=O)c(C(=O)NCCc3ccccc3)c[nH]c12 | 2.4 | . | -41 | 19 | 10 | 3 | 4094

Further entries follow.
SMILES | RN4220 kill | BJeLR viability | PrP UTR inh | Mtb hypoxia rep | Mtb hypoxia rep growth | Sa ugtP lethal | Autofluor counter
CC(C)N1CCC(N2CCN(Cc3cnc(-c4ccccc4)s3)CC2CCO)CC1 (configuration not stated) | 0.2 | -1 | -18 | 13 | 5 | -2 | 2686
CN(C(=O)c1ccc(OC2CCN(C(=O)c3cccnc3)CC2)cc1)C1CCCCC1 | 6.4 | -7 | -15 | 8 | 12 | 4 | 6052
Cc1cccc(-c2noc(CN(C(=O)c3ccc(Br)o3)C(C)C)n2)c1 | 3.2 | -1 | -4 | . | . | 76 | 2856
C/C(=N\NC(=O)COc1c(C)cccc1C)c1cccs1 | . | 1 | -44 | . | . | . | 4175
COc1ccc(-c2csc(N3CCN(C(=O)c4ccco4)CC3)n2)cc1 | 19 | -36 | -28 | . | . | 3 | 5506
CCOC(=O)c1sc2nc(C)nc(SCC(=O)N(C)C3CCS(=O)(=O)C3)c2c1C (configuration not stated) | 1.8 | 4 | -7 | -1 | 14 | 2 | 2025
C=CCOC(=O)C1=C(C)NC(=O)NC1C1CC=CCC1 (configuration not stated) | 11 | -11 | -17 | 20 | 10 | -2 | 2947
CCC(=O)Oc1ccc(CC(=NO)c2ccc(O)cc2O)o1 | 14 | . | . | 1 | 6 | 4 | .
CC(=O)c1cn(CC(=O)Nc2ccc(C)cc2C)c2ccccc12 | -9.9 | 4 | -17 | 9 | 8 | -6 | 2885
CC1(COS(N)(=O)=O)CCCCC1 | . | 8 | -19 | . | . | . | 3563
Cc1cc(C)n(C(=O)CCNC(=O)c2ccccc2Cl)n1 | 4.1 | 13 | -11 | 5 | 9 | -2 | 2973
COc1ccc2nc(Cl)c(C#N)cc2c1 | 9.1 | 9 | -17 | 1 | 2 | 11 | 4877
Cc1cc(C)nc(NCCC(=O)O)n1 | -0.3 | 5 | -25 | 10 | 10 | 5 | 3488
COCCNC(=S)N/N=C(\C)c1ccc(OC(F)F)cc1 | . | -8 | 0 | . | . | . | 4237
Cc1cc(NCCCN2CCOCC2)n2ncc(-c3ccccc3)c2n1 | -2.0 | 0 | -100 | . | . | 15 | 2868
NC1=NC(=Nc2ccc(Br)cc2)c2ccccc21 | -5.7 | 7 | 3 | 3 | 4 | -10 | 2795
CC(C)(C)C(=O)COC(=O)c1ccc(N)c([N+](=O)[O-])c1 | 3.4 | -4 | -20 | 13 | 5 | 0 | 2489
CC(C)Oc1nc(-c2ccccc2Cl)nc2ccccc12 | -7.3 | 4 | -20 | 7 | 14 | 58 | 5705
NC(=O)c1cc2c3ccccc3ccn2c1-c1ccccc1 | 7.6 | 49 | 72* | 20 | 10 | 2 | 3958
CN(Cc1ccco1)S(=O)(=O)c1nnc(NC(=O)c2ccccc2)s1 | 23 | 1 | -8 | 8 | 16 | 13 | 5399

2 of these compounds in another layout:
| mol | RN4220 kill | BJeLR viability | PrP UTR inh | Mtb hypoxia rep | Mtb hypoxia rep growth | Sa ugtP lethal | Autofluor counter |
| --- | --- | --- | --- | --- | --- | --- | --- |
| CC(C)Oc1nc(-c2ccccc2Cl)nc2ccccc12 | -7.3 | 4 | -20 | 7 | 14 | 58 | 5705 |
| Cc1cc(C)nc(NCCC(=O)O)n1 | -0.3 | 5 | -25 | 10 | 10 | 5 | 3488 |

4 records drawn at random from the list so far, as already listed:
SMILES | RN4220 kill | BJeLR viability | PrP UTR inh | Mtb hypoxia rep | Mtb hypoxia rep growth | Sa ugtP lethal | Autofluor counter
CN(Cc1ccco1)S(=O)(=O)c1nnc(NC(=O)c2ccccc2)s1 | 23 | 1 | -8 | 8 | 16 | 13 | 5399
NC1=NC(=Nc2ccc(Br)cc2)c2ccccc21 | -5.7 | 7 | 3 | 3 | 4 | -10 | 2795
COCCNC(=S)N/N=C(\C)c1ccc(OC(F)F)cc1 | . | -8 | 0 | . | . | . | 4237
COc1ccc2nc(Cl)c(C#N)cc2c1 | 9.1 | 9 | -17 | 1 | 2 | 11 | 4877

Additional results
SMILES | RN4220 kill | BJeLR viability | PrP UTR inh | Mtb hypoxia rep | Mtb hypoxia rep growth | Sa ugtP lethal | Autofluor counter
N#Cc1ccc(/C=C/C(=O)c2ccco2)cc1 | . | -4 | -21 | . | . | . | 2093
O=C(Cc1cc(=O)[nH][nH]1)NN=Cc1ccccc1Cl | 2.1 | . | . | -7 | 3 | 5 | .
CCOC(=O)N1CCN(C(=O)C(C)(C)Oc2ccc(Cl)cc2)CC1 | 9.0 | 0 | -4 | . | . | 3 | 6161
COc1ccc(NC(=O)C2CCN(S(=O)(=O)c3ccc(OC)c(OC)c3)CC2)cc1 | 4.2 | -2 | -16 | -4 | -6 | 15 | 6768
